PK Bst = alters activity of Bacillus stearothermophilus pyruvate kinase. partly purified Bacillus stearothermophilus pyruvate kinase, luminescence ATP production; ribose 5-phosphate activator present at AC10. Potency, µM. hit rate 1.2% among 51,000; in the data active means potency below about 11 µM; inconclusive means mostly about 12 µM to 25 µM; inactive means weaker than that;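 the screen sought inhibitors and activators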;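 note: potency is the fitted concentration of half-maximal effect; scaled between full activation by ribose 5 phosphate and full inhibition by luteolin; about four in five hits inhibit and the cells do not say which; series up to 57 µM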
YjeE inh = YjeE (TsaE) inhibition, E. coli; hit rate 0.05% among 71,000; AID 605; purified YjeE, fluorescence polarisation of a bound ADP probe; Potency, µM; active = well fitted falling curve; inconclusive = weaker or top-dose-only fall, or a rising curve; inactive = flat or poorly fitted curve;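 note: top concentration of the series not given in the record; excess ADP was the control for the full effect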
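Purified YjeE (10 uM) with BODIPY Texas Red-labeled ADP probe (2 uM); compounds pin-transferred, 15 min at room temperature. Binding inhibition read as decreased fluorescence polarization; ADP titration as control.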
Starred values were filed as active, the others as inactive; i = inactive; u = inconclusive; x = not tested or not shown. These rows are one share of the data, so the mix of outcomes need not match the whole.

SMILES | PK Bst | YjeE inh
O=C(Cc1ccc(Br)cc1)N1CCN(c2ccccc2)CC1 | >57 | i
O=S(=O)(NCCc1cn2ccccc2n1)c1ccc2c(c1)OCCO2 | x | i
O=C(Nc1cccc(C(F)(F)F)c1)N1CCC(c2nc(-c3ccc(F)cc3)no2)CC1 | >57 | i
CC(=O)NCCn1c(SCC(=O)NCCC2=CCCCC2)nc2ccccc2c1=O | >57 | i
COCCn1c(C(=O)N2CCCC2)cc2c1C[C@H]1CN(C(=O)c3ccccc3)[C@@](Cc3ccc(F)cc3)(C(=O)OC)[C@@H]21 | x | i
CC(C)(C)C(=O)/C(C#N)=c1\s/c(=C\c2ccncc2)c(=O)n1CCCN1CCOCC1 | >57 | i
Cn1cc(S(=O)(=O)NCc2cccs2)c(=O)n(C)c1=O | x | i
CCn1c(N2CCN(S(=O)(=O)c3ccccc3C(F)(F)F)CC2)nc2ccccc21 | >57 | i
Nc1ccc(S(=O)(=O)Nc2nccs2)cc1 | x | i
O=C(c1c[nH]c(=O)n(-c2ccccc2)c1=O)N1CCc2ccccc21 | >57 | i
FC(F)Sc1ccc(Nc2ncnc3nc[nH]c23)cc1 | i | i
Cc1cc(C(=O)Nc2c(C)n(C)n(-c3ccccc3)c2=O)cs1 | >57 | i
Cc1cc(C)n(C(=O)c2ccc(NC(=O)C3CC3)cc2)n1 | x | i
CCCS(=O)(=O)N1CCCC(C(=O)NCCN(CC)c2ccccc2)C1 (centres undefined) | >57 | i
O=C(CN1CCOc2ccccc21)NC1CCN(Cc2ccccc2)CC1 | x | i
O=C1CN(C(=O)CSc2nnc(-c3ccccc3)n2Cc2ccc3c(c2)OCO3)c2ccccc2N1 | >57 | i
CCc1nnc(NC(=O)C2CCCN2S(=O)(=O)c2ccccc2)s1 (centres undefined) | >57 | i
NCCSc1nc2ccccc2s1 | x | i
O=S(=O)(Nc1nccs1)c1cc(Cl)ccc1Cl | u | i
CC(=O)C1=C(C)NC(SCC(=O)c2cc(Cl)ccc2Cl)=C(C#N)C1c1ccco1 (centres undefined) | x | i
CCOC(=O)c1c(N)sc2c(NC(C)=O)cccc12 | x | i
Cc1occc1C(=O)N1CCN(S(C)(=O)=O)CC1 | >57 | i
CCSC1=C(C#N)C(c2ccccc2Cl)CC(=O)N1 (centres undefined) | x | i
CCCCS(=O)(=O)/C=C\C=C/S(=O)(=O)CCCC | >57 | i
CS(=O)(=O)Nc1ccccc1C(=O)NC1CC2CCC1C2 (centres undefined) | >57 | i
O=S(=O)(Nc1ncccc1O)c1ccc(Cl)cc1 | >57 | i
CCn1c(C)csc1=NC(=O)c1ccccc1 | >57 | i
O=C(NCc1ccco1)C(c1ccccc1)N(CC1CCCO1)C(=O)Cn1nnc2ccccc21 (centres undefined) | >57 | i
CC(c1ccccc1)n1c(NCCCn2ccnc2)nc2c1c(=O)[nH]c(=O)n2C (centres undefined) | >57 | i
COc1ccc(CCNc2c(C)c(C)nc3ncnn23)cc1 | >57 | i
COC(=O)CCC(=O)COc1ccccc1C#N | >57 | i
O=C(CCc1nc2ccccc2[nH]1)N1CCc2ccccc2C1 | x | i
COc1ccccc1OCCCCNC(C)(C)C | x | i
O=C1C=C(NCc2ccco2)C2(CCCCC2)O1 | x | i
Cc1[nH]c(=O)[nH]c(=O)c1CSc1nnc(CCCCCNC(=O)OC(C)(C)C)o1 | >57 | i
Cc1cc(C(=O)CSc2nc3ccccc3[nH]2)c(C)n1C | x | i
CC(C)(C)c1ccc(OCC(O)CS(=O)(=O)c2ccccn2)cc1 (centres undefined) | x | i
COc1ccc(-n2c(Cc3cc(=O)[nH]c(=O)[nH]3)nnc2SCC(=O)Nc2ccccc2)cc1 | x | i
Cc1cc2n(n1)C(c1ccc3c(c1)OCO3)Nc1c(C)cccc1-2 (centres undefined) | >57 | i
CCOc1cc(C)c(S(=O)(=O)NC2CCCCC2)cc1C | >57 | i
COc1ccc2c(c1)CCc1c(C(=O)NCc3ccco3)noc1-2 | x | i
Cc1cc(C)c2cc(CN(CCN3CCCC3)C(=O)Nc3ccc(F)cc3)c(=O)[nH]c2c1 | >57 | i
COc1ccc(NC(=O)C23CCC(C)(C(=O)C2)C3(C)C)cc1 (centres undefined) | x | i
CC(=O)N1CCc2cc(S(=O)(=O)NCCC(=O)NC3CCCc4ccccc43)ccc21 (centres undefined) | u | i
CC1CC(C)CN(C(=O)Cn2c(=O)n(CCCCC(=O)NC3CCCC3)c(=O)c3ccccc32)C1 (centres undefined) | >57 | i
C=CCNC(=O)C1CC(=O)N(c2ccc(OCC(=O)Nc3ccccc3)cc2)C1 (centres undefined) | >57 | i
C=CCn1c(=O)/c(=C/c2ccc(C)o2)s/c1=C(/C#N)C(=O)c1ccccc1 | >57 | i
O=C(CSc1nc2ccccc2c(=O)n1CCCC(=O)N1CCCC1)NCc1ccco1 | >57 | i
COCc1cc(C)nc(NC2CCCCC2)c1C#N | >57 | i
COc1ccc(NS(=O)(=O)Cc2ccccc2Cl)cn1 | >57 | i
CCOc1ccc(C(=O)NCc2ccncc2)cc1OCC | x | i
CS(=O)(=O)N(CC(=O)NCCC1=CCCCC1)C1CCCCC1 | >57 | i
Cc1cc(C(=O)OCC(=O)c2ccc(Br)s2)no1 | >57 | i
Cc1ccc(-c2csc3nnc(SCC(=O)N4CCN(Cc5ccccc5)CC4)n23)cc1 | >57 | i
O=C(O)CCn1cnc2ccccc2c1=O | >57 | i
CC1(C(=O)NC2CCCC2)CCC(=O)N1Cc1ccccc1 (centres undefined) | >57 | i
O=C(Nc1ccc(N2CCN(Cc3ccccc3)CC2)cc1)c1ncn[nH]1 | >57 | i
O=C(O)C1C(c2ccccc2)C(C(=O)OCc2ccco2)C1c1ccccc1 (centres undefined) | x | i
CCSc1nnc(Cn2c(=O)sc3ccccc32)n1-c1ccccc1C | x | i
O=c1c(-c2cccs2)nc2cnc(Oc3cccc(Cl)c3)nc2n1C1CC1 | x | i

Of the compounds above, 4 have a tert-butyl group:
SMILES | PK Bst | YjeE inh
CC(C)(C)C(=O)/C(C#N)=c1\s/c(=C\c2ccncc2)c(=O)n1CCCN1CCOCC1 | >57 | i
COc1ccccc1OCCCCNC(C)(C)C | x | i
Cc1[nH]c(=O)[nH]c(=O)c1CSc1nnc(CCCCCNC(=O)OC(C)(C)C)o1 | >57 | i
CC(C)(C)c1ccc(OCC(O)CS(=O)(=O)c2ccccn2)cc1 (centres undefined) | x | i

Next part
SMILES | PK Bst | YjeE inh
O=c1c2cc(N3CCOCC3)ccc2[nH]c(=S)n1CCCN1CCCCCC1 | >57 | i
O=C(CC1OC(=O)c2ccccc21)Nc1ccccc1N1CCOCC1 (centres undefined) | >57 | i
O[C@@H](c1cc(-c2ccc(Cl)cc2)nc2ccccc12)[C@@H]1CCCCN1 | x | i
Cc1ccccc1CN1C(=O)CSc2ccc(C(=O)N3CCOCC3)cc21 | >57 | i
COC(=O)c1ccc(C2/C(=C(\O)c3cccc(OC)c3)C(=O)C(=O)N2CCCN(C)C)cc1 (centres undefined) | >26 | x
CCCNc1nc2c(c(=O)n(C)c(=O)n2C)n1Cc1cccc(C)c1 | >57 | i
CC(CC(=O)Nc1ccncc1)c1ccccc1 (centres undefined) | >57 | i
COc1ccc(CCNC(=O)CCN2C(=O)C3CC=CCC3C2=O)cc1OC (centres undefined) | >57 | i
COc1ccc(Cc2nnc(NC(=O)Cc3cccs3)s2)cc1 | >57 | i
c1ccc(C(CCN2CC3CCC(CC3)C2)c2ccccc2)cc1 | x | i
CC1=C(CC(=O)O)c2cc(F)ccc2/C1=C\c1ccc(S(C)(=O)=O)cc1 | x | i
Cc1ccc(-c2nc3ccccc3c(=O)n2CCCN2CCOCC2)cc1 | >57 | i
CCC(=O)N1CCCc2cc(S(=O)(=O)NCc3cccs3)ccc21 | >57 | i
CN(C)CCNC(=O)C(C(=O)c1ccccc1)n1ccccc1=O (centres undefined) | >57 | i
CC(Sc1ccc(Br)cc1)C(N)=O (centres undefined) | >57 | i
NC(=O)c1ccccc1O | x | i
Fc1cccc(CN2CCN(c3ncccn3)CC2)c1 | x | i
CC(C)N(Cc1ccccc1)S(=O)(=O)c1n[nH]c(C(C)(C)C)n1 | x | i
C/C(=C1/SC(N2CCOCC2)=NC1=O)c1ccc(Br)cc1 | x | i
CC(C)N(Cc1nc(-c2ccccc2)no1)C(=O)C(C)(C)C | >57 | i
Cc1c(S(=O)(=O)N2CCN(c3cccc(C(F)(F)F)c3)CC2)c(=O)n(C)c(=O)n1C | x | i
Cc1noc(C)c1-c1nc(NC2CCNCC2)c2ccccc2n1 | x | i
Cc1cc(C)nc(N2CCCC(C(=O)Nc3cc(F)ccc3C)C2)n1 (centres undefined) | >57 | i
O=C(NCc1ccc(Cl)cc1)c1cc(-c2cccs2)on1 | >57 | i
C=CCOc1c(Cl)cc(/C=N/O)cc1OC | x | i
CCCOc1ccc2c3c(c(=O)oc2c1)CCCC3 | i | i
Cc1cc(C)n2c(SCc3c(C)noc3C)nnc2n1 | >57 | i
O=C(NCc1cccs1)N[C@@H](Cc1ccccc1)C(=O)O | >57 | i
O=C(COC(=O)C1CC1)c1c[nH]c2ccccc12 | >57 | i
O=C(CSCc1ccco1)c1ccc(Cl)s1 | x | i

Record cards, as listed above. Screens in order: PK Bst, YjeE inh
Shown for NC(=O)c1ccccc1O = x, i
Shown for Cc1cc(C)n2c(SCc3c(C)noc3C)nnc2n1 = >57, i

Going on with the list.
SMILES | PK Bst | YjeE inh
CC(=O)Nc1ccccc1OCc1nnc(-c2cccs2)o1 | >57 | i
O=C(c1cc(-c2cccs2)on1)N1CCCc2ccccc21 | x | i
O=C(CCN1CCCCC1)NCNC(=O)CCN1CCCCC1 | >57 | i
CCOC(=O)c1cccc(NS(=O)(=O)c2c(C)[nH]c(=O)[nH]c2=O)c1 | >57 | i
Cc1cc(C)c2c(=O)n(CC(=O)N3CCC(Cc4ccccc4)CC3)sc2n1 | x | i
COc1cccc(CN2CCN(c3cccc(C(F)(F)F)c3)CC2)c1OC | >57 | i
Cc1noc(C)c1COC(=O)COc1cccc2c1OC(C)(C)C2 | >57 | i
O=C1c2ccccc2C(=O)N1CCC(=O)N1CCCc2ccccc21 | >57 | i
CCOC(=O)CC(=O)CSc1nc2nc(C)cc(C)n2n1 | >57 | i
O=C(Nc1cc(C(F)(F)F)ccc1N1CCOCC1)C1Cc2ccccc2CN1C(=O)c1ccco1 (centres undefined) | >57 | i
Cc1ccc(NC(=O)CSCc2c(C)noc2C)cc1C | >57 | i
CC(C)=CCCC(C)NC(=O)NC1CCCCC1 (centres undefined) | >57 | i
O=C(c1cccc(F)c1)N1CCC2(CCN(Cc3ccccc3)CC2)CC1 | x | i
O=c1[nH]c(CS(=O)(=O)c2ccccc2)nc2ccccc12 | >57 | i
CCOC(=O)c1ccc(Nc2nnc(C(C)(C)C)c(=O)[nH]2)cc1 | >57 | i
COc1ccc(C(=O)N2CCC[C@@]3(CCN(c4ccncc4)C3)C2)cc1 | x | i
CCn1c(C)cc2c(c1=O)C(c1ccncc1)C(C#N)=C(N)O2 (centres undefined) | >57 | i
CC(C)(C)N1C(=O)c2ccc(C(=O)Nc3nccs3)cc2C1=O | x | i
COCC(=O)Nc1cc(C)c2c(=O)oc3ccccc3c2n1 | x | i
O=C(NCc1ccccc1)/C(=N\O)c1ccccc1 | >26 | x
COc1ccc(/C(O)=C2\C(=O)C(=O)N(CC3CCCO3)C2c2cc(OC)ccc2OC)cc1 (centres undefined) | >57 | i
Cc1cc(NC(=O)c2cc3n(n2)C(C(F)(F)F)CC(c2ccc(Cl)c(Cl)c2)N3)no1 (centres undefined) | >57 | i
Cn1c(=O)c2c(nc(SCC(=O)N3CCc4ccccc43)n2Cc2ccccc2)n(C)c1=O | >57 | i
COC(=O)c1ccc(NC(=O)C2CCCN2S(=O)(=O)c2ccc(C)cc2)cc1 (centres undefined) | x | i
COCCNc1nc(C(C)(C)C)nc2c1nnn2Cc1ccccc1Cl | >57 | i
O=C1NC(Nc2ccccn2)(C(F)(F)F)C(=O)N1c1ccc(F)cc1 (centres undefined) | >57 | i
Cc1cc(S(=O)(=O)N2CCN(c3ccc(F)cc3)CC2)c(C)s1 | x | i
COC(=O)Cc1csc(Nc2c(C)n(C)n(-c3ccccc3)c2=O)n1 | >57 | i
FC(F)(F)c1cccnc1N1CCN(c2ncnc3nc[nH]c23)CC1 | x | i
CC(C)CC(=O)NC1(C(F)(F)F)C(=O)Nc2c1c(=O)[nH]c(=O)n2Cc1ccco1 (centres undefined) | >57 | i
COc1cccc(Oc2ccc(N)cn2)c1 | >57 | i
CNC(=O)N(C1=NCC(C)(C)S1)c1ccc(F)c(Cl)c1 | x | i
O=C(Nc1ccc(N2CCOCC2)c(Cl)c1)C1CCCCC1 | x | i
COCCn1c(=O)c(-c2ccc(Cl)cc2)nc2cnc(N3CCOCC3)nc21 | x | i
CCCCN(C)CCCNC(=O)c1ccc2c(c1)NC(=O)C(N1CCOCC1)S2 (centres undefined) | >57 | i
O=C(c1cccc(C(=O)N2CCN(c3ncccn3)CC2)c1)N1CCN(c2ncccn2)CC1 | >57 | i
O=C(Nc1ccccc1C(=O)N1CCOCC1)C1COc2ccccc2O1 (centres undefined) | >57 | i

5 records drawn at random from those above:
SMILES | PK Bst | YjeE inh
O=C(Nc1ccc(N2CCOCC2)c(Cl)c1)C1CCCCC1 | x | i
CCCCN(C)CCCNC(=O)c1ccc2c(c1)NC(=O)C(N1CCOCC1)S2 (centres undefined) | >57 | i
COCCn1c(=O)c(-c2ccc(Cl)cc2)nc2cnc(N3CCOCC3)nc21 | x | i
O=C(Nc1ccccc1C(=O)N1CCOCC1)C1COc2ccccc2O1 (centres undefined) | >57 | i
O=C(c1cccc(C(=O)N2CCN(c3ncccn3)CC2)c1)N1CCN(c2ncccn2)CC1 | >57 | i

High-throughput results from PubChem BioAssay.
